RanGTP-Imp inh = inhibitors of RanGTP-importin-beta interaction, primary screen, biochemical, FRET, CFP-Ran, YFP-importin-beta, homogeneous; cell-free CFP-Ran/YFP-importin-beta FRET ratio; inhibition, % (test concentration not listed); 1.1% of 300,000 active; AID 2216;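 active = most replicates above 15%; inconclusive = exactly half above 15%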;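 also: 0% = DMSO wells and 100% = Ran loaded with GDP instead of GTP; wells of about 40 µL received 100 nL stock; the first replicate is given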
Vif A3G = HIV-1 Vif–A3G interaction blockers – biochemical, TR-FRET, GST-Vif 1-94, biotin-A3G peptide, dose response retest, primary screen (AID 1117319); TR-FRET GST-Vif / biotin-A3G peptide binding; higher % means a stronger effect; test concentration not given here; strong numbers were not always called active; inhibition, %, or IC50 in µM where a hit was titrated; 0.57% of 260,000 active;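 active = above the screen mean plus three standard deviations and confirmed in dose response; inconclusive = results disagree or hit not tested in dose response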;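 also: Vif residues 1-94 fused to GST binding biotinylated APOBEC3G peptide 110-148; 0% = full assay without inhibitor and 100% = GST in place of GST-Vif; retest series ran down from 100 µM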
FGF22 binding = shifts melting point of recombinant human FGF22; calls only at 9.99 µM; 1.5% of 340,000 active; Q9HCT0; AID 651658; recombinant FGF22 thermal shift, SYPRO orange fluorescence; percent of sucrose octasulfate shift, DMSO zero;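 active = melting point raised past a set limit in the mean and every replicate; inconclusive = no clear call; three in four hits are not shown here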
Target sequence (Q9HCT0 whole entry, looked up): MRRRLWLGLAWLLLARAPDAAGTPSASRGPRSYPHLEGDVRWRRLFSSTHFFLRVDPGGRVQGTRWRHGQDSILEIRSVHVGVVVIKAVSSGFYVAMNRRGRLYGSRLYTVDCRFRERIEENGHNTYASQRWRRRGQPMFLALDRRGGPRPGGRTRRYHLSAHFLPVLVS
Ecoli growth = E. coli growth inhibition; Escherichia coli growth, OD600, 23 h; stronger effect = lower value; 0.21% of 330,000 active; AID 1053175; OD600 absorbance (concentration not given with the values);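 active = OD600 absorbance below the run mean of sample wells minus 3.6 SD, in any replicate, cut at about 0.56 in these data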;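 also: stock transfer was 300 nL into about 60 µL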
MLL AF4-AF9 inh = MLL-AF4/AF9 protein interaction inhibition | AlphaScreen, biotin-AF4 peptide binding to FLAG-AF9 | AID 651704 | 0.47% of 350,000 active | P42568 | inhibition, % at 10 µM;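 active = every replicate reaching a set inhibition limit, whatever the replicate mean, cut at about 25% in these data; inconclusive = mean inhibition reaches that limit but some replicates miss it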;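 also: 0% = plate neutral control median and 100% = total signal loss; the record names both 10 and 1 µM as test concentration; the first replicate is given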
Target sequence (P42568 whole entry, looked up): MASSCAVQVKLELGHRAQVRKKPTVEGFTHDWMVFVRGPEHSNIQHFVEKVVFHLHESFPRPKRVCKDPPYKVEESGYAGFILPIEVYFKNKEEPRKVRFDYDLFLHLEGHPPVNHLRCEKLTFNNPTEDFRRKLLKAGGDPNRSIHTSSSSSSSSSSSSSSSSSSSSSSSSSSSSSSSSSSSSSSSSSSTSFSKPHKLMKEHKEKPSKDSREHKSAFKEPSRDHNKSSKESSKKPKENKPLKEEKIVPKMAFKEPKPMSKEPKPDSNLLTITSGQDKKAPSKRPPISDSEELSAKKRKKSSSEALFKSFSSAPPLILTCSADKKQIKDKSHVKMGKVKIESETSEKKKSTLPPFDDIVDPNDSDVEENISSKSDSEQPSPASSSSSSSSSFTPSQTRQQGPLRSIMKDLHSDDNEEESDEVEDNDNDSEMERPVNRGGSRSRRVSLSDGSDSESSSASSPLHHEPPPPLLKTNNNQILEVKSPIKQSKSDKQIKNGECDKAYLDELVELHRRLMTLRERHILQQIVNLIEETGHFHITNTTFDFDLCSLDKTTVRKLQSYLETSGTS
HNF4A DNA FP = change in binding of human HNF4 alpha to DNA. P41235. AID 1224865. activity change, % at 10 µM. 0.3% of 360,000 active. HNF4a-FITC DNA binding, fluorescence polarization, 1 h; in the data active = activity change above about 30%, passing the limit was not always enough;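 also: controls were the assay level and a saturating level of protein; the project sought stronger binding though the title names inhibitors; some compounds called inactive have numbers as strong as hits; positive values seem to mean higher polarization but the record does not say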
UCH37 inh = human UCH37 deubiquitinating enzyme inhibition; 0.33% of 330,000 active; Q9Y5K5; inhibition, % (concentration not given with the values); purified proteasome/UCH37, Ub-AMC cleavage fluorescence;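 active = mean of two replicates above 20%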;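 also: 0% = compound-free wells with enzyme and 100% = wells lacking proteasome; stock transfer was 100 nL into about 20 µL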
Target sequence (Q9Y5K5 whole entry, looked up): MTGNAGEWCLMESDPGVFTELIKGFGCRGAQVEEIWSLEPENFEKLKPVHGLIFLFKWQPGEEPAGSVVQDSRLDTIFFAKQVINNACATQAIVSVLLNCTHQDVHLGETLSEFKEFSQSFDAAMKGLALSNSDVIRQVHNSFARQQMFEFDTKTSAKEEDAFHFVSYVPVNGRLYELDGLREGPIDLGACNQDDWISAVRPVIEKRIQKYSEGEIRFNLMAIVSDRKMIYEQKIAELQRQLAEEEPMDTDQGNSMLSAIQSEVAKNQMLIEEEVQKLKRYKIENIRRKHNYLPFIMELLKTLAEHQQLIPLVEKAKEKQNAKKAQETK
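Assay system: Proteasome-bound UCH37. Buffer or medium: pH 7.4 Tris-HCl (50 mM) with ovalbumin, ATP-MgCl2, DTT. Incubation: 30 min preincubation with enzyme, 25 min cleavage at room temperature. Measured by: fluorescence, ex 355 nm, em 460 nm. Read-out basis: percent inhibition. Control set: wells without proteasome as full block, compound-free enzyme plus substrate as uninhibited.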
Active calls of the source: *; i = inactive; u = inconclusive; x = not tested or not shown. A portion of the library, so the mix of outcomes need not match the whole.

SMILES | RanGTP-Imp inh | Vif A3G | FGF22 binding | Ecoli growth | MLL AF4-AF9 inh | HNF4A DNA FP | UCH37 inh
COc1cccc2[nH]c(C(=O)NCCc3ccccc3)cc12 | 2.6 | 0.3% | i | 0.678 | -1.8 | 2.3 | -10.8
CC(C)OC(=O)CC1C(=O)NCCN1C(=S)NC(=O)c1cccs1 (stereo not drawn) | 1.1 | -0.2% | i | 0.68 | -9.7 | 2.4 | 1.9
Fc1ccc(CN(Cc2ccccc2)C(c2cccs2)c2nnnn2C2CCCCC2)cc1 (stereo not drawn) | 6.5 | 0.7% | x | 0.777 | x | -5.0 | 1.6
Cc1ccc(N2CC(NS(=O)(=O)c3cc(F)ccc3F)CC2=O)cc1C (stereo not drawn) | 0.4 | 4.5% | x | 0.642 | -0.9 | -0.2 | 1.5
CCOC(=O)N1CCC(NC(=O)CN(C)S(=O)(=O)c2cc3c(cc2Cl)NC(=O)CO3)CC1 | u | 6.9% | x | 0.656 | x | -0.4 | 4.5
CCOC1=C2[C@H](c3ccccc3)N(S(=O)(=O)c3ccc(C)cc3)C[C@H]2n2c(=O)n(-c3ccccc3)c(=O)n2C1 | x | x | i | x | -1.3 | 5.8 | x
Cc1cc(OCn2ccc(C(=O)O)n2)ccc1Cl | -3.6 | 5.1% | x | 0.72 | x | 0.3 | -1.6
Cc1cccc(NC(=O)c2nc[nH]c2C(=O)N[C@@H](CC(C)C)C(=O)OC(C)(C)C)c1 | -1.2 | -2.6% | i | x | 6.6 | -0.5 | -1.4
O=C1Nc2ccccc2C(O)(C(=O)N2CCCCC2)N1c1ccccc1 (stereo not drawn) | -0.3 | 6.0% | x | 0.739 | x | 2.1 | 2.3
CC1=C(C(=O)Nc2ccccc2C(=O)N2CCC(C)CC2)SCCO1 | -3.2 | u | i | 0.683 | -2.1 | 4.2 | 0.2
COc1cc(C=O)ccc1OCC(=O)NC(C)(C)C | 1.0 | -1.1% | i | 0.721 | -2.6 | -1.9 | 1.6
Cc1ccc(Cc2cnc(NC(=O)/C(C#N)=C/c3ccc(-c4ccc([N+](=O)[O-])cc4)o3)s2)cc1 | 5.6 | 64.0% | x | 0.765 | x | 5.7 | 9.3
Cc1ccccc1N1C(=O)CC(Nc2ccc3c(c2)OCO3)C1=O (stereo not drawn) | 1.3 | 12.3% | x | 0.672 | x | 0.5 | 6.6
O=C(O)CC/C(=C\c1ccc2c(c1)OCO2)c1nc2ccccc2s1 | 4.5 | x | i | 0.704 | -7.0 | -5.8 | -0.9
Cc1ccc(CNC(=O)C2CCCN2C(=O)Nc2ccc(C)cc2)cc1 (stereo not drawn) | 0.4 | x | i | 0.68 | -2.4 | -2.0 | 1.4
COc1cc(OC)cc(C(=O)Nc2cccc(NC(C)=O)c2)c1 | 7.9 | 2.6% | x | 0.677 | x | 2.5 | 1.7
Cc1nn(C(=O)c2nn(C)cc2Cl)c(C)c1Br | 8.1 | -2.3% | i | 0.659 | -0.4 | 1.0 | 0.9
Cc1cc(C)c(O)c(-c2cc(C(=O)NCCc3ccc(S(N)(=O)=O)cc3)[nH]n2)c1 | 3.7 | 0.9% | x | 0.637 | 9.4 | -1.3 | 3.3
CC(=O)SC(C)CC(=O)NCc1ccccc1 (stereo not drawn) | 5.0 | -0.5% | x | 0.644 | x | 2.1 | 1.9
CCCCN(C(=O)CSc1nnc(Nc2ccc(C)c(C)c2)s1)c1c(N)n(Cc2ccccc2)c(=O)[nH]c1=O | -2.9 | 1.5% | x | 0.808 | x | -3.1 | -0.5
O=C1CCCC(=O)C1C1c2ccccc2CCN1C(=O)CCl (stereo not drawn) | -2.3 | 18.2% | i | 0.609 | 0.2 | -0.7 | 2.3
O=C(O)c1ccccc1CC(CCc1ccccc1)C(=O)O (stereo not drawn) | x | -14.3% | i | 0.724 | 2.7 | -0.1 | -1.7
CCOC(=O)N1CCN(C(=O)c2cc3c(=O)n(C)c4ccccc4c3n2C)CC1 | -0.1 | -3.7% | i | 0.698 | -1.8 | -1.1 | 1.7
CC1=C(C(=O)OCc2ccccc2)C(c2ccc(Cl)cc2)NC(=O)N1CCCC(=O)O (stereo not drawn) | -0.5 | x | i | 0.681 | -16.3 | x | 3.3
Cc1ccc(-n2nc3cc(C)c(N)cc3n2)cc1 | 2.8 | 30.9% | x | 0.675 | x | 15.0 | -208.4
O=[N+]([O-])c1ccccc1S(=O)(=O)N(CC1CO1)c1ccccc1 (stereo not drawn) | 2.2 | x | i | 0.685 | 0.7 | -2.2 | 0.5
COc1cc(NC(=O)C/C(C)=N/NC(=O)C(=O)NC2CCCCC2)c(OC)cc1Cl | 7.5 | x | i | x | -0.9 | -3.2 | x
Cc1cccc(NC(=O)CNC(=O)CCc2nc3sc4c(c3c(=O)[nH]2)CCCC4)c1C | -0.8 | -3.5% | i | 0.708 | -1.1 | 1.5 | 3.1
COC1=CC2(O)CCCC2=CC1=O (stereo not drawn) | 1.7 | x | i | x | -5.0 | -0.6 | 30.0*
CN(Cc1cnn(-c2ccccc2)c1)C(=O)c1ccc(S(=O)(=O)NCc2ccco2)cc1 | x | -3.8% | i | x | 1.7 | 4.4 | x
O=S(=O)(c1ccccc1)N1CCc2ccccc2C1 | 1.0 | x | i | 0.671 | 0.4 | 0.3 | 4.0
CN(CC1CCCN(CCc2ccc(Cl)cc2)C1)C(=O)c1ccc2nc[nH]c2c1 (stereo not drawn) | -1.7 | x | i | 0.724 | 3.8 | 1.6 | 4.5
O=C(COn1nnc2ccc(Cl)cc21)NC1CCS(=O)(=O)C1 (stereo not drawn) | x | -6.5% | x | 0.679 | 0.5 | 0.0 | 4.0
O=c1[nH]ncn1-c1ccc(Br)cc1 | -3.4 | -2.1% | i | 0.665 | -0.9 | -2.7 | 5.9
COc1ccc(OC)c(S(=O)(=O)N(C)CC(=O)N2CCN(c3ccc(F)cc3)CC2)c1 | -0.9 | 10.6% | x | 0.672 | x | -2.7 | 2.4
Cc1ccc(C(=O)OCC(=O)Nc2ccc3c(c2)OCO3)c(O)c1 | x | -5.3% | i | 0.708 | -1.6 | -3.6 | -5.2
Cc1ccc([C@@H]2CC=C(C(=O)O)[C@H](c3ccc(Cl)cc3)N2S(=O)(=O)c2ccccc2C)cc1 | x | -1.1% | i | 0.659 | 0.8 | -1.5 | 1.7
Cc1cc(C)c[n+](CC(=O)c2c(C)cc(C)c([N+](=O)[O-])c2C)c1 | 1.1 | x | i | 0.658 | -5.2 | 0.7 | 3.7
CCNC(=O)C1CC(=O)OC12CCCCC2 (stereo not drawn) | 1.3 | 0.3% | x | 0.646 | x | 0.2 | 1.4
Cn1ccc(=O)c2cc([N+](=O)[O-])ccc21 | x | -2.9% | i | x | 2.9 | 0.2 | x
O=C(CN1C(=O)C2C3CC(C(Br)C3Br)C2C1=O)OCC(=O)c1cccc([N+](=O)[O-])c1 (stereo not drawn) | -2.8 | 6.0% | i | 0.648 | -1.0 | 0.8 | 3.9
COc1ccc(OC)c(S(=O)(=O)N2CCCC(C(=O)N3CCC(C(N)=O)CC3)C2)c1 (stereo not drawn) | 6.3 | -6.8% | x | 0.615 | -0.2 | -0.9 | -0.5
CCC(C)(C)NC(=O)CCCSc1nc2ccccc2[nH]1 | -0.1 | -4.3% | i | 0.69 | 3.8 | -0.9 | 0.7
O=C(NCc1ccco1)c1cc(S(=O)(=O)N2CCOCC2)ccc1Cl | 1.1 | 0.3% | x | 0.648 | x | 2.0 | -0.3
CC(O)CSc1nc2c(c(=O)[nH]c(=O)n2C)n1Cc1ccccc1 (stereo not drawn) | -3.1 | x | i | 0.698 | -0.2 | 1.1 | 4.1
CN(C)C=NC(=O)c1ccc(N2CCN(c3ncc(C(F)(F)F)cc3Cl)CC2)cc1 | -2.8 | u | x | 0.799 | x | -0.6 | -5.7
CCCn1nc(C(=O)Nc2ccc(S(=O)(=O)Nc3ncccn3)cc2)c2ccccc2c1=O | 1.6 | 16.6% | i | 0.651 | -1.4 | 6.8 | 3.0
CCCC(C)(C)C(=O)N1CCC1(C)C(=O)NS(=O)(=O)c1cccc(Cl)c1 (stereo not drawn) | x | x | i | x | -0.1 | 0.2 | x
CN(C(=O)COC(=O)Cc1c(Cl)cccc1Cl)C1CCS(=O)(=O)C1 (stereo not drawn) | x | -0.6% | i | x | -1.0 | 1.5 | x
Cc1cccc(C(=O)OC(C)C(=O)N2CCc3ccccc3C2)c1C (stereo not drawn) | x | -4.7% | i | 0.705 | -4.6 | -0.9 | -1.0

Part of the list above, with each value named:
CC1=C(C(=O)Nc2ccccc2C(=O)N2CCC(C)CC2)SCCO1
  RanGTP-Imp inh: -3.2 | Vif A3G: u | FGF22 binding: i | Ecoli growth: 0.683 | MLL AF4-AF9 inh: -2.1 | HNF4A DNA FP: 4.2 | UCH37 inh: 0.2
COc1cc(C=O)ccc1OCC(=O)NC(C)(C)C
  RanGTP-Imp inh: 1.0 | Vif A3G: -1.1% | FGF22 binding: i | Ecoli growth: 0.721 | MLL AF4-AF9 inh: -2.6 | HNF4A DNA FP: -1.9 | UCH37 inh: 1.6

The list continues:
SMILES | RanGTP-Imp inh | Vif A3G | FGF22 binding | Ecoli growth | MLL AF4-AF9 inh | HNF4A DNA FP | UCH37 inh
Cc1ccc(CN2CCN(Cc3cn(C(C)C)c4ccccc34)CC2CCO)o1 (stereo not drawn) | -0.2 | x | i | 0.73 | 5.9 | -1.1 | 3.6
CCN1C[C@@H]2[C@@H]3C(=O)N(C)C(=O)[C@@H]3[C@](Cc3ccccc3)(C(=O)OC)N2C1=NC1CCCCC1 | x | -5.6% | x | 0.674 | 2.3 | -1.2 | 2.4
CC(=O)NCCNC(=O)C1CCC(CNc2nc(=S)[nH]c3ccccc23)CC1 (stereo not drawn) | -2.3 | x | i | 0.643 | -2.5 | -4.6 | 1.4
Cc1cc(Cl)ccc1OC(C)C(=O)NNC(=O)C1CCCCC1C(=O)O (stereo not drawn) | 1.8 | x | i | 0.67 | 0.1 | -1.9 | 0.8
O=C(CN1CCN(c2ccc(F)cc2)CC1)Nc1ccc2c(c1)OCCO2 | 4.3 | x | i | 0.655 | -0.5 | 1.6 | 1.5
O=S(=O)(NCCCNS(=O)(=O)c1c(F)cccc1F)c1ccc2c(c1)OCCO2 | x | x | i | 0.691 | -0.7 | 3.7 | 5.1
Cc1cc(=S)c2ccccc2[nH]1 | 4.9 | u | i | 0.645 | -4.0 | -1.7 | 5.0
NC(=O)C1CCCN(S(=O)(=O)c2ccc(Br)cc2)C1 (stereo not drawn) | -2.4 | -4.9% | x | 0.762 | x | -1.4 | 4.3
Cc1ccccc1NS(=O)(=O)c1ccc(NS(=O)(=O)c2cccs2)cc1 | 7.3 | x | i | 0.663 | -10.1 | 1.3 | 1.9
CCOc1ccccc1NC(=O)C(CC(C)C)NC(=O)C1CCC(C)CC1 (stereo not drawn) | -3.5 | -5.4% | x | 0.708 | x | -2.6 | 5.9
Cc1ccc(-n2cc(S(=O)(=O)c3ccc(C)cc3)[nH]c2=O)cc1 | 2.2 | -1.4% | i | 0.661 | -3.0 | -4.9 | -0.4
Cc1n[nH]c(C)c1C(=O)CC1(O)C(=O)N(CCc2ccccc2)c2ccc(Cl)cc21 (stereo not drawn) | 0.0 | 4.2% | x | 0.773 | x | 0.9 | 4.5
COc1cc(CC(CC(=O)O)CC(C)OCc2ccccc2)cc(OC)c1 (stereo not drawn) | 1.8 | -17.0% | i | 0.71 | -3.0 | 5.3 | 2.4
